Menin MLL FP FL: menin-MLL binding inhibition, fluorescein peptide. Fluorescence polarization, fluorescein-MLL peptide displacement from menin. FP activity change, % at 61.4 µM. 290,000 tested, under 10 active. AID 1766; inconclusive = falling polarisation curve, or a change in total fluorescence; inactive = total fluorescence flat and polarisation flat or rising; no compound was filed as active; the % refers to the polarisation; negative = inhibition;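 also: % of control where 0% means no effect; inhibitors lower the polarisation; unlabelled MLL peptide was the positive control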
The depositor's hits bear a star; u = inconclusive; & = joins results of further samples; [ ] = another dose, or the depositor's remark. An excerpt. The share of hits here may be higher or lower than overall.

SMILES | Menin MLL FP FL
O=c1cc(-c2ccccc2)oc2cc(O[C@@H]3O[C@H](CO)[C@@H](O)[C@H](O)[C@H]3O)c(O)c(O)c12 | u
OC[C@@H]1O[C@H](OC2[C@@H](O)[C@@H](O)C(O)O[C@@H]2CO)[C@H](O)[C@@H](O)[C@@H]1OC1O[C@H](CO)[C@@H](O)[C@H](O)[C@@H]1O (stereo not given in full) | 0.6
CC(=O)N1C(=O)N(C)C2C1N(C)C(=O)N2C(C)=O (stereo not given) | -1.3
CC(C)(C)N1C(=O)[C@H]2[C@@H]3[C@H](O)[C@H](O)CC(=O)[C@H]3CC[C@H]2C1=O | 1.0&-0.8[11.7 µM]
COC(=O)C1=C(C(=O)OC)[C@@H]2N(C)c3ccc(OC)cc3[C@@]23C[C@@H](C(=O)OC)N(S(=O)(=O)c2ccc4c(c2)OCCN4C)C3=N1 | 0.6[11.7 µM]
Nc1ccc(/C=C/c2ccc(N)cc2S(=O)(=O)O)c(S(=O)(=O)O)c1 | -2.0
Cc1cc(C)n(-c2nc(SCC(=O)NCC3CCCO3)c3c4c(sc3n2)CCCC4)n1 (stereo not given) | 1.9
Cc1noc(C)c1C(=O)N1CCC2(CCN(Cc3nccs3)CC2)CC1 | -3.2
COc1cc2nc(CN3CCN(C(c4ccccc4)c4ccccc4)CC3)[nH]c(=O)c2cc1OC | 3.3
C[C@H](NC(=O)[C@@H](N)Cc1ccc(O)cc1)C(=O)NCC(=O)N[C@H]1CSSC[C@@H](C(=O)O)NC(=O)[C@H](CO)NC(=O)[C@H]([C@@H](C)O)NC(=O)[C@H](Cc2ccccc2)NC(=O)[C@H]([C@@H](C)O)NC(=O)[C@H](CCCCN)NC(=O)[C@H](Cc2c[nH]c3ccccc23)NC(=O)[C@H](Cc2ccccc2)NC(=O)[C@H](Cc2ccccc2)NC(=O)[C@H](CC(N)=O)NC(=O)[C@H](CCCCN)NC1=O | -6.1
CC(C)C(C)NC(=O)COC(=O)c1cc(S(=O)(=O)N(C)C)ccc1N1CCCC1 (stereo not given) | 2.6
CCC(=O)C(C(=O)OC)[C@H](CCc1ccccc1)NC(=O)OC (stereo not given in full) | -0.6
CC(C(=O)Nc1ccccc1F)N1CCN(C)CC1 (stereo not given) | 11
COc1ccc(OC)c(N/C(=N\c2nc(C)cc(C)n2)NC(=O)c2ccco2)c1 | 0.9
CC(C)CCCC(C)C1CC(=O)C2=C3CCC4CC(O)CCC4(C)C3CCC21C (stereo not given) | -4.0
CCCCCCCCCCCCCCCCSCC(COC)COP(=O)([O-])OCC[N+](C)(C)C (stereo not given) | -0.9
O=C(O)P(=O)(O)O | -0.8
COc1ccc(CC(N)C(=O)NC2C(CO)OC(n3cnc4c(N(C)C)ncnc43)C2O)cc1 (stereo not given) | 1.4
O=C(c1ccco1)N1CCN(c2ncnc3c2[nH]c2ccccc23)CC1 | 3.4
CN(C)C(=O)c1ccc(-c2cncnc2NC2CCNCC2)cc1 | -0.9
CCCCCCCCCCCCCC(=O)N[C@H](C)[C@@H](O)c1ccccc1 | 0.7
CCC[C@@H]1C[C@@]1(CCC)C(NC(=O)c1ccccc1)c1cccc(Cl)c1 (stereo not given in full) | 1.4
COC(=O)C1(C(=O)OC)C[C@@H]2CON=C2[C@H]1c1ccccc1 | -0.8&-5.1
CSCC[C@H](NC(=O)[C@H](CCCN=C(N)N)NC(=O)[C@@H]1CCCN1C(=O)[C@H](Cc1ccccc1)NC(=O)[C@H](C)NC(=O)[C@H](CC(C)C)NC(=O)[C@H](Cc1ccc(O)cc1)NC(=O)[C@H](CC(N)=O)NC(=O)[C@@H](N)CCSC)C(N)=O | -3.8
Cc1ccc(Nc2nc(N)nc(CN3CCN(C)CC3)n2)cc1C | 0.5

The list goes on, starting with the last 7 of the part before.
SMILES | Menin MLL FP FL
O=C(c1ccco1)N1CCN(c2ncnc3c2[nH]c2ccccc23)CC1 | 3.4
CN(C)C(=O)c1ccc(-c2cncnc2NC2CCNCC2)cc1 | -0.9
CCCCCCCCCCCCCC(=O)N[C@H](C)[C@@H](O)c1ccccc1 | 0.7
CCC[C@@H]1C[C@@]1(CCC)C(NC(=O)c1ccccc1)c1cccc(Cl)c1 (stereo not given in full) | 1.4
COC(=O)C1(C(=O)OC)C[C@@H]2CON=C2[C@H]1c1ccccc1 | -0.8&-5.1
CSCC[C@H](NC(=O)[C@H](CCCN=C(N)N)NC(=O)[C@@H]1CCCN1C(=O)[C@H](Cc1ccccc1)NC(=O)[C@H](C)NC(=O)[C@H](CC(C)C)NC(=O)[C@H](Cc1ccc(O)cc1)NC(=O)[C@H](CC(N)=O)NC(=O)[C@@H](N)CCSC)C(N)=O | -3.8
Cc1ccc(Nc2nc(N)nc(CN3CCN(C)CC3)n2)cc1C | 0.5
OCC1OC(n2cnc3c(Cl)ncnc32)C(O)C1O (stereo not given) | 0.4
CCN1CCN(C(=O)N[C@H](C(=O)N[C@@H]2C(=O)N3[C@@H]2SC(C)(C)[C@@H]3C(=O)O)c2ccccc2)C(=O)C1=O | 1.2[24.8 µM]
COc1ccc(CNC(=O)CSc2nc3[nH]ncc3c(=O)n2-c2ccccc2Br)cc1 | 1.2
N[C@H](C(=O)O)C(O)C(O)C(O)CO (stereo not given in full) | 5.1
O=c1c(-c2ccccc2)c1-c1ccccc1 | 3.2&1.2
Cc1ccccc1-c1nc(NCc2cccs2)c2ccccc2n1 | 2.7
S=c1ccss1 | 0.3
O=C(NCCN1CCOCC1)c1cc(Cl)ccc1[N+](=O)[O-] | 1.0
COc1ccc2[nH]cc(CCNc3nc(-c4cccc(C#N)c4)nc4ccccc34)c2c1 | 0.2
CO[C@@H]1COC(=O)[C@H]2CCCN2C(=O)[C@@H](C)COC(=O)CCC[C@H]1C | 3.2[11.7 µM]
COc1ccc(/C=C/N(CCc2ccc(OC)c(OC)c2)C(C)=O)cc1 | -4.3[11.7 µM]
O=C(O)Cc1ccc(OCCNC[C@H](O)c2ccccc2)cc1 | 0.7
CCOC(=O)N1CCN(c2ncnc3c2cnn3-c2ccc(Cl)cc2)CC1 | 0.8
CCC(=O)[C@]12O[C@@]3(C4C(=O)OCCC41)N(Cc1ccccc1)C(C)=C(C(=O)OC)C(c1ccccc1)N3C2=O (stereo not given in full) | -1.2[11.7 µM]
CC1CC(OC(=O)c2ccccc2O)CC(C)(C)C1 (stereo not given) | 0.8&-2.0
c1ccc(CNc2nc(-c3ccc4c(c3)OCO4)nc3ccccc23)cc1 | 6.0
COc1ccc2[nH]cc(CCNc3ccnc(-c4cccc(NS(C)(=O)=O)c4)n3)c2c1 | 1.5
Cc1sccc1C1C(C#N)=C(N)SC(N)=C1C#N | u
Cn1cc(-c2nc3cncnc3n(-c3ccccc3)c2=O)c2ccccc21 | u
Cc1ccccc1-c1ccc2ncnc(N3CCOCC3)c2c1 | 2.1
O=C(NCc1ccco1)c1ccc2nc3sc4c(c3c(=O)n2c1)CCCC4 | 10
COc1cccc(Cn2c(=O)c(CCc3ccccc3)nc3cnc(N4CCNCC4)nc32)c1 | 9.7
CCNc1ncc2nc(CCc3ccccc3)c(=O)n(C[C@H]3CCCO3)c2n1 | 7.0
CCCCCCN(C(=O)CCCCCN1C(=O)NC(c2ccc(-c3ccccc3)cc2)C(C(=O)OCc2ccccc2)=C1C)C(C(=O)NCCCC)c1ccc(-c2ccccc2)cc1 (stereo not given) | 2.4&-1.9
N#Cc1cccc(-c2ccc3ncnc(NCc4cccnc4)c3c2)c1 | -0.2
SMILES | Menin MLL FP FL
CC(C)c1cccc2nc3c(c(C(C)(C)C)c12)Cn1c-3cccc1=O | 0.1
CO[C@H]1COC(=O)C/C=C\[C@@H](C)[C@H](OC)COC(=O)CCC[C@@H]1C | -4.0[11.7 µM]
O=c1c(-c2cc(F)cc(F)c2)nc2cncnc2n1-c1ccccc1 | 3.6
CCC(CC)C(=O)Nc1cccc(SC)c1 | 1.8
O=C(O)C1CC[C@@](C(=O)O)(c2ccccc2)c2ccccc21 (stereo not given in full) | -4.9
NC(=O)NNc1ccccc1 | -0.3&-7.0
C[C@@H]1C=CCC(=O)OC[C@H](C)C(=O)OC[C@H]2O[C@H]1C=C[C@H]2O | 7.5[11.7 µM]
CCN1C(=O)[C@H]2[C@H]3[C@H](O)[C@H](O)C/C(=N\O[C@H](C)c4cn([C@H](CO)Cc5ccccc5)nn4)[C@@H]3CC[C@H]2C1=O | 0.0
c1ccc(CCCOCCC2CO2)cc1 (stereo not given) | -4.0
COc1ccc(C2CC(c3ccc(C)cc3)=NN2C(=O)CCC(=O)O)cc1OC (stereo not given) | 0.4
COc1ccc2[nH]c(S(=O)Cc3ncc(C)c(OC)c3C)nc2n1 (stereo not given) | 4.3
CCCCC/C=C\C/C=C\C/C=C\CCCCCCC(=O)NCC(=O)O | -3.5
COC(=O)c1cc2c([nH]c3ccccc32)c(C)n1 | 0.7
Cc1cnc(CNc2ncncc2-c2ccccc2Cl)cn1 | -1.9
O=S(=O)(c1ccccc1)N1CCC2(CCN(C(c3ccccc3)c3ccccc3)CC2)CC1 | -1.9
Nc1ncn(C2C[C@H](O)[C@@H](CO)O2)c(=O)n1 (stereo not given in full) | 3.1
O=C(O)c1ccc(Cn2c(SCc3cc(=O)n4cc(Br)ccc4n3)nc3ccsc3c2=O)cc1 | -0.6
COc1ccc(O[C@H]2C=C[C@@H](c3ccccc3)O[C@H]2COC(=O)CC/C(C)=N\O[C@@H](C)c2cn([C@H]3COC[C@H]3O)nn2)cc1 | -2.3[11.7 µM]
CCCC(=O)Nc1nc2c(ncn2[C@@H]2O[C@H]3COP(=O)(O)O[C@@H]3[C@@H]2OC(=O)CCC)c(=O)[nH]1 | 0.3
CC(C)C[C@@H](CC(=O)N[C@@H](CCCN)CC(=O)N[C@@H]1CCCC[C@H]1C(=O)N[C@H](CC(=O)N[C@@H](CCC(=O)O)CC(=O)O)Cc1ccccc1)NC(=O)[C@@H]1CNCC[C@H]1N | -4.0
COC(=O)[C@@]1(Cc2ccccc2)[C@H]2c3cc(C(=O)N4CCCC4)n(CCc4ccccn4)c3C[C@H]2CN1C(=O)c1ccccc1 | -0.9
COCCn1c(=O)c(-c2cccc(C#N)c2)nc2cnc(Nc3ccccc3)nc21 | u
COC(=O)[C@@H]1CC[C@H](C)[C@@H](c2ccc(C)cc2)N1C(=O)c1ccc(/C=N/OCC[C@@H]2C=C[C@H](OC(C)=O)[C@@H](COC(C)=O)O2)cc1 | -2.7
CCCCCCCCCCC(=O)NNC(=O)c1c(O)c2ccccc2n(CC)c1=O | 1.9
O=C1CSC(c2ccccc2)N1c1nnc(C23CC4CC(CC(C4)C2)C3)s1 (stereo not given) | 0.5

Part of the list above in order of SMILES length, descending:
SMILES | Menin MLL FP FL
C[C@@H]1C=CCC(=O)OC[C@H](C)C(=O)OC[C@H]2O[C@H]1C=C[C@H]2O | 7.5[11.7 µM]
COCCn1c(=O)c(-c2cccc(C#N)c2)nc2cnc(Nc3ccccc3)nc21 | u
Cc1cnc(CNc2ncncc2-c2ccccc2Cl)cn1 | -1.9

Continuation.
SMILES | Menin MLL FP FL
CCC(=O)OCC(=O)[C@@]1(OC(=O)CC)[C@@H](C)C[C@H]2[C@@H]3CCC4=CC(=O)C=C[C@]4(C)[C@@]3(F)[C@@H](O)C[C@@]21C | -5.4
COc1ccc(COC(=O)c2ccc3c(=O)n4c(nc3c2)CCC4)cc1F | 1.7
Cc1ccc(CC(Cc2nc3ccccc3[nH]2)c2nc3ccccc3[nH]2)cc1 (stereo not given) | 0.0
O=C(c1ccco1)N1CCC[C@@]2(CCN(Cc3nccs3)C2)C1 | 3.0
C[C@@H]1OC(O[C@H]2[C@H](Oc3cc(O)c4c(=O)c(O)c(-c5ccc(O)cc5)oc4c3)O[C@H](CO)[C@@H](O)[C@@H]2O)[C@H](O)[C@H](O)[C@H]1O (stereo not given in full) | 4.2
Fc1cccc(-n2c(-c3cccs3)nc3nc4ccccc4nc32)c1 | 3.2
CC(C)[N+]1(C)C2CCC1CC(OC(=O)C(CO)c1ccccc1)C2 (stereo not given) | 1.8
NC(CSSCC(N)C(=O)O)C(=O)O (stereo not given) | 0.6&-1.3
COc1ccc(-c2cc(=O)c3c(O)cc(O)cc3o2)cc1O | 4.0
CC(CCC(=O)O)C1CCC2C3CC[C@H]4CC(O)CC[C@@]4(C)C3C=C[C@]12C (stereo not given in full) | -2.7
CC[C@H]1C(c2cccc(Cl)c2)=NN(c2ccccc2)[C@@H]1CO | 22[94.6 µM]
C=CC[C@@H]1C=C[C@@H](O/N=C\[C@@H](NS(=O)(=O)c2ccc(C)cc2)[C@H](C)/C=C\CC(=O)OC)[C@@H](CO)O1 | -2.1[11.7 µM]
CCSc1nnc(NC(=O)C2CCN(S(=O)(=O)c3c(C)c(C)cc(C)c3C)CC2)s1 | 3.9
COc1ccc(O[C@H]2C=C[C@@H](c3ccccc3)O[C@H]2COC(=O)CC/C(C)=N\OC[C@@H](O)COCc2ccco2)cc1 | -5.1[11.7 µM]
COCCN=C1OC(=O)N2C(=O)C3=C4C(C[C@H]5C(=O)N(c6ccccc6)C(=O)[C@H]5[C@H]4[C@@]12Cc1ccccc1)[C@H]1C(=O)N(c2ccccc2)C(=O)[C@H]1[C@H]3C (stereo not given in full) | -5.1
OC[C@@H](O)C(O)[C@@H](O)CO (stereo not given in full) | -4.3
CC(=O)N1CC=CC1(CC(C)C)C(=O)O (stereo not given) | -0.7
COc1ccc(N2C(=O)N(Cc3cccc(F)c3)c3ccccc3S2(=O)=O)cc1 | 0.0
O=C(COc1ncnc2scc(-c3ccccc3)c12)NCCN1C(=O)CSC1=O | 1.4

Reformatted field by field: entries from further up.
COc1ccc(COC(=O)c2ccc3c(=O)n4c(nc3c2)CCC4)cc1F
  Menin MLL FP FL: 1.7
Cc1ccc(CC(Cc2nc3ccccc3[nH]2)c2nc3ccccc3[nH]2)cc1 (stereo not given)
  Menin MLL FP FL: 0.0
